# CSC inhib – cancer stem cell inhibition. cancer stem cell-like cells viability, luminescence. hit rate 1.1% among 300,000. AID 2717. inhibition, % at 7.5 µM;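 active = mean at 75% or more and at least half the replicates too; inconclusive = mean and replicates disagree; tested in HMLE shEcad cells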;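 note: 0% = median of negative and 100% = median of positive control wells; the first replicate is given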
# MT1-MMP act inh – MT1-MMP (human) activation inhibition | HT1080 RFP-PRO-GFP cells, GFP/RFP ratio fluorescence, overnight; percent of plate control window, DMSO zero | GFP/RFP ratio change, % at 20 µM | hit rate 0.061% among 360,000 | AID 651647;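 active = GFP/RFP ratio change of at least 30% with cell ATP level not reduced by more than half and red fluorescence within 50% of control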; note: strong numbers were not always called active
#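 Assay system: HT1080 RFP-PRO-GFP cells | Dosing: 20 µM single dose, 1% DMSO | Incubation: Cells overnight before dosing, compound overnight, 37 °C, 5% CO2 | Evaluation: GFP/RFP fluorescence ratio | Control set: DMSO-only wells and HT1080 RFP-L50D-GFP cell wells as references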
# PABP polyA inh – blocks human PABP binding to poly(A) RNA; P11940; fluorescence polarization; inhibition, % at 35 µM; hit rate 1% among 290,000; AID 2014;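 active = 50% or more with normal probe brightness, or confirmed in later tests; inconclusive = above 50% with abnormal brightness, or retests that disagree; inactive = below 50% or failed in later tests; about a fifth of its hits are not listed in these tables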;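 note: calls also rest on retests at 20 µM and on dose response follow-up; controls were probe without protein and protein plus probe with vehicle; some compounds called inactive have numbers as strong as hits; many hits fall short of the cut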
# Target sequence (P11940 whole entry, looked up): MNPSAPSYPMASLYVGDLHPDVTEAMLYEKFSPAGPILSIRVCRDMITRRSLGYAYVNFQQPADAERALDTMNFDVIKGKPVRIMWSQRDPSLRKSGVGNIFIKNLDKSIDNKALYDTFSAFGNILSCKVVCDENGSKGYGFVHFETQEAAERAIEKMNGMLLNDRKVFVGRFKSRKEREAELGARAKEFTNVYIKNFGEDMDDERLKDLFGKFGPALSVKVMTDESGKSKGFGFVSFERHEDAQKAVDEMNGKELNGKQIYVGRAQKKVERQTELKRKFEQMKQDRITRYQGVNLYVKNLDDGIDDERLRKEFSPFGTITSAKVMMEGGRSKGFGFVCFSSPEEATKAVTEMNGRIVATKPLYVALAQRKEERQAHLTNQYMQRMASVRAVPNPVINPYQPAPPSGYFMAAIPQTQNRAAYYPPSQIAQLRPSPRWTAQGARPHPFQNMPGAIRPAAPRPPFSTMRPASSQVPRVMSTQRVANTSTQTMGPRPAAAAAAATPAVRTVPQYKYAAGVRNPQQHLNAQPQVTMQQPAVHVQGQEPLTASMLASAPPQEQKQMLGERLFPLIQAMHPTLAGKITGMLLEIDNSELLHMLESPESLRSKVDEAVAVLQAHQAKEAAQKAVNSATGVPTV
# Rce1 inhib – inhibitors of yeast Ras-converting enzyme | hit rate 0.27% among 290,000 | yeast membranes, quenched prenylated peptide cleavage fluorescence | Q03530 | AID 2563 | calls only;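 active = fall in fluorescence gain of 50% or more versus controls, with final raw signal at or below 3038400; inconclusive = same 50% fall but final raw signal above 3038400; inactive = fall in fluorescence gain under 50%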;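 note: plate controls were neutral control wells for no effect and wells lacking membranes for full effect; tested at 10 µM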
# Target sequence (Q03530 whole entry, looked up): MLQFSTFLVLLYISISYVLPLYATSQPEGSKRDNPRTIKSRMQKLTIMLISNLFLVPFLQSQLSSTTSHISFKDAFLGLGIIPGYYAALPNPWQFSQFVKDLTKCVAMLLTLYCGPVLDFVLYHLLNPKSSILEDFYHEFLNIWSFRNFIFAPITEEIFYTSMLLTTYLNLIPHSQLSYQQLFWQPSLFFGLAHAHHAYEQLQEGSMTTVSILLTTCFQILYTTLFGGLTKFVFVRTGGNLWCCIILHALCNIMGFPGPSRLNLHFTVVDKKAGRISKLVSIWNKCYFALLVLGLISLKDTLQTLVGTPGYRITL
# Yeast UUG start – alters start codon recognition fidelity in yeast. S. cerevisiae UUG-firefly luciferase reporter, luminescence/redox ratio. activity score, % at 18.7 µM. hit rate 0.13% among 350,000. AID 602363;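 active = replicate mean at a twofold rise or more, about +100% in these data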;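 note: firefly luciferase made from a UUG start codon reports start codon fidelity; reporter light over untreated wells divided by growth signal over untreated wells; some hits fall short of that in this replicate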
# eIF4H FP inh – inhibitors of RNA binding by human eIF4H | eIF4H fluorescence polarization binding assay | inhibition, % at 35 µM | hit rate 0.94% among 290,000 | Q15056;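 active = 50% or more with normal probe brightness, or confirmed in later tests; inconclusive = above 50% with abnormal brightness, or retests that disagree; inactive = below 50% or failed in later tests; about a fifth of its hits are not listed in these tables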;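 note: calls also rest on retests at 20 µM and on dose response follow-up; 0% = protein and probe with vehicle and 100% = probe without protein; strong numbers were not always called active; many hits fall short of the cut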
# Env fusion inh – inhibitors of HIV Env-mediated cell fusion; AID 651610; HeLa-JRFL Env/CEM21 cell fusion, luciferase; inhibition, % at 12.3 µM; hit rate 1.1% among 360,000;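 active = mean replicate inhibition score of at least 50 and every replicate individually at or above 50; inconclusive = only one of the two criteria met; inactive = mean below 50 and not all replicates reaching 50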;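 note: 0% = plate neutral controls and 100% = maraviroc near 300 nM; one replicate is shown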
# eIF4H FP inh retest – second read-out of eIF4H FP inh, no call of its own (marks repeat the call); inhibition, %; compound at 20 µM; confirmation average;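 mean of two retest wells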
# PABP polyA inh retest – also measured in PABP polyA inh; calls as there; inhibition, %; compound at 20 µM; confirmation repeats;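 mean of two retest wells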
# MT1-MMP act inh RFP – also measured in MT1-MMP act inh; calls as there; RFP signal change, %; measured here: RFP expression control read;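 0 = vehicle wells; hits needed this value within 50% of zero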
# Active calls of the source: *; i = inactive; ? = inconclusive; nt = not tested or not shown; & = joins results of further samples. Compounds were not picked by outcome. Share with any hit: about 3%.
SMILES,CSC inhib,MT1-MMP act inh,MT1-MMP act inh RFP,PABP polyA inh,Rce1 inhib,Yeast UUG start,eIF4H FP inh,Env fusion inh,others
COCCNC(=O)Cn1c(=O)n(C)c2ccccc21,-5.3,-4.4,0.4,-9.5,i,-2.4,-3.6,-11.6,
CCCCCCCCOC(=O)c1nc(Cl)c(Cl)c(N)c1Cl,4.2,18.0,6.3,-2.6,i,-10.5,-10.4,nt,
CCCC1(C(=O)OC)NC(c2ccc(OC)c(OC)c2)C2C(=O)N(c3cccc(C(C)=O)c3)C(=O)C21 (stereo not drawn),-3.8,-2.8,3.6,1.2,nt,3.1,-8.4,21.8,
O=C(NC(Cc1ccccc1)c1ccc2c(c1)OCCCO2)c1ccc(F)cc1 (stereo not drawn),5.3,-5.4,-8.5,4.6,i,-7.4,-6.8,-50.0,
COC(=O)c1ccccc1S(=O)(=O)N1CCC(C(=O)NC2CCCCC2)CC1,nt,-2.3,0.7,nt,nt,-13.5,nt,-1.0,
CC(C)N1CCC(=NNc2ccc(S(=O)(=O)N3CCOCC3)cc2[N+](=O)[O-])CC1,15.1,5.1,5.2,6.9,i,nt,5.6,0.9,
Cc1[nH][nH]c(=O)c1C(c1ccc2c(c1)OCO2)c1c(C)[nH][nH]c1=O,-3.8,2.7,5.9,-11.3,i,nt,-2.1,22.0,
CCOC(=O)c1ccc(-c2ccc(/C=N/NC(=O)CN(c3cccc(C)c3)S(C)(=O)=O)o2)cc1,-1.9,3.7,4.5,-8.6,i,nt,7.5,-3.5,
CCN(CC)C(=O)CSc1nc2ccsc2c(=O)n1CCCC(=O)NCCc1ccc(S(N)(=O)=O)cc1,-6.6,-2.1,-1.7,8.0,nt,nt,2.1,0.4,
CCN(CC)S(=O)(=O)c1ccc(C(=O)NCCc2ccccn2)cc1,0.5,3.0,4.1,0.9,i,-4.0,-16.1,-8.8,
O=C(OCC(=O)N(CCc1ccccc1)Cc1ccccc1)c1ccc(F)c(S(=O)(=O)N2CCOCC2)c1,nt,-0.4,-10.5,nt,nt,-12.1,nt,-12.7,
CCCn1c(SCC(=O)c2cc(OC)ccc2OC)nnc1C(C)C,-1.8,7.8,5.6,0.1,i,-6.7,1.6,nt,
CN(C)S(=O)(=O)c1ccc(Cl)c(C(=O)NCc2ccco2)c1,-3.6,-9.2,2.1,-2.5,i,nt,-4.9,nt,
CCCn1nnnc1NCc1cccc(OC)c1OC,-17.6,-2.9,1.5,-7.0,i,-10.4,-7.9,3.1,
CCOc1ccc(-c2cc(C(=O)O)c3ccccc3n2)cc1,-12.6,1.3,5.1,2.7,i,-6.8,4.2,-27.8,
CC1CCCN(S(=O)(=O)c2ccc(NC(=O)[C@@H]3CCCN3C(=O)c3cccs3)cc2)C1 (stereo partly drawn),nt,-1.5,-1.2,nt,nt,-1.6,nt,-11.7,
Cc1ccc(C2=C(CC(=O)O)C(=O)CC2)cc1,-4.2,-4.7,1.8,5.8,i,-24.3,-6.2,23.7,
Cc1cccc2c(=O)cc(C)n(CC(=O)N3CCOCC3)c12,3.0,-2.3,-1.0,-0.8,i,-4.2,1.7,nt,
COc1ccc(NC(=O)Nc2ccc(C(C)C)cc2)cc1,5.6,3.4,1.6,19.7,i,-6.1,-3.1,-0.4,
CNC(=S)N/N=C/c1cccc(OCc2ccccc2F)c1,nt,-4.3,-18.5,-6.6,i,-34.8,-8.9,nt,
CCn1c(=O)n(CC)c2cc(S(=O)(=O)Nc3c(C)cccc3C)ccc21,-8.3,-0.2,-1.8,6.2,i,-1.3,-1.0,20.7,
Cc1ccnc(NC(=O)CCC(=O)N(CC(=O)NC2CCCCC2)Cc2ccccc2)c1,nt,6.9,2.6,-7.2,i,nt,-8.6,0.4,
COc1ccccc1/C=C/C=N/NC(=O)CN1CCN(Cc2ccccc2)CC1,-7.9,0.4,-1.9,6.7,i,nt,2.1,7.8,
CCN(C(=O)COC(=O)c1ccccc1O)c1nc2ccccc2s1,7.8,0.5,1.6,nt,nt,-5.9,nt,nt,
Clc1cccc(CNCCCSc2ncccn2)c1,-11.7,-3.9,0.8,31.4,i,-18.5,5.1,8.4,

# (continued)
SMILES,CSC inhib,MT1-MMP act inh,MT1-MMP act inh RFP,PABP polyA inh,Rce1 inhib,Yeast UUG start,eIF4H FP inh,Env fusion inh,others
CSCCC(NC(=O)c1ccc([N+](=O)[O-])cc1Cl)C(=O)OC(C)C(=O)NCc1ccco1 (stereo not drawn),-2.0,-1.8,3.7,nt,i,-3.4,nt,-12.9,
CN(C)S(=O)(=O)NCC1CCCN(Cc2ccc(-c3ccccc3)cc2)C1 (stereo not drawn),-2.3,6.1,-0.8,-4.6,i,8.0,-5.4,4.7,
NC(=O)c1cccc(-c2ccnc3c2CC(C(=O)Nc2ccc(Cl)cc2)O3)c1 (stereo not drawn),nt,3.6,-10.7,nt,nt,-4.5,nt,-21.2,
CCOC(=O)c1cccc(NC(=O)Cn2cc3c(n2)CCC(C)C3)c1 (stereo not drawn),-8.3,15.0,-2.2,-9.7,i,-13.3,-7.7,13.9,
Cc1ccccc1S(=O)(=O)NC(=O)C1(C)CCN1C(=O)C1(c2ccc(Cl)cc2)CC1 (stereo not drawn),nt,0.6,2.5,nt,nt,9.1,nt,-0.7,
C/C(O)=C(\C#N)c1nnc2n1CCCCC2,-4.2,-2.9,3.1,-0.9,i,-12.1,-1.2,11.6,
O=C(O)Cc1ccc(C(=O)c2ccccc2)s1,-4.6,-5.0,-0.2,2.6,i,-19.9,6.3,15.5,
COCC(C)n1c(SCC(=O)N2CCCCC2)nc2ccccc2c1=O (stereo not drawn),2.3,-5.4,-5.0,7.8,i,-3.5,-8.0,-27.4,
CCC(CO)Nc1nc(CN2CCCCC2)nc2scc(-c3ccccc3)c12 (stereo not drawn),-10.0,-7.3,-5.5,-6.2,i,-15.7,-3.2,-10.9,
Cc1c(C(N)=O)sc(N)c1C(=O)OC(C)C,-8.8,-2.2,-1.8,-4.8,nt,-9.7,-2.3,-243.2,
COCCn1c(=N)c(C(=O)NCc2ccco2)cc2c(=O)n3cc(C)ccc3nc21,-2.9,-3.4,7.7,48.1,i,-12.0,106.7*,-10.2,eIF4H FP inh retest=82.8*;PABP polyA inh retest=37.0
CCOc1cc(C2NC(=O)NC(C)=C2C(=O)OCC2CCCCC2)ccc1O (stereo not drawn),-18.7,1.1,-4.4,-1.4,i,6.3,3.3,14.1,
Cn1cccc1C(=O)C(=O)Nc1ccccc1,3.8,6.3,4.2,0.9,i,nt,5.2,nt,
Cc1c(OCC(N)=O)ccc2c(-c3ccccc3)cc(=O)oc12,-1.8,3.2,5.1,13.8,i,-19.4,-8.8,-3.7,
CC(C)CCN(CC(=O)NC1CCCC1)C(=O)C(=O)Nc1ccc2c(c1)OCCO2,-4.6,-2.0,-2.5,7.8,i,8.0,9.4,2.0,
COC(=O)c1[nH]c2cc(OC)ccc2c1N,0.2,3.6,3.3,4.0,i,-25.4,-1.6,nt,
NC1=NC(=O)C(c2ccccc2)C(=O)N1 (stereo not drawn),nt,-1.7,1.2,nt,nt,-12.9,nt,-11.5,
O=C(NCc1cccc(Cl)c1)C1CCC(=O)N(C2CC2)C1 (stereo not drawn),-7.2,1.2,0.0,6.3,i,-14.7,5.8,-9.5,
Cc1ccc(N(CC(=O)NC(C)(C)C)C(=O)CCC(=O)Nc2nccs2)cc1C,-3.6,3.2,-0.8,-7.7,i,-3.5,-2.4,7.6,
CC1CCCCN1S(=O)(=O)c1ccc(C(=O)N2CCOCC2)cc1 (stereo not drawn),-4.9,0.9,1.4,-6.2,i,3.5,6.1,13.0,
CCOc1ccccc1NC(=O)CSc1nccn1-c1ccccc1,-4.5,3.1,1.8,-2.5,i,-13.6,-1.0,nt,
Cc1cc(Br)cc(Br)c1OCC(=O)NNC(=O)c1ccoc1C,2.8,3.5,1.8,-4.1,nt,-8.1,-0.5,nt,
Oc1cccc(CCC2CCCCN2Cc2cn[nH]c2-c2ccc3c(c2)OCO3)c1 (stereo not drawn),0.6,-4.6,-0.7,-2.4,i,nt,-0.4,36.2,
O=S(=O)(NC1CCCCC1)c1ccc(F)c2ccccc12,-7.2,-2.7,-3.6,3.7,i,-1.6,-5.7,-69.5,
Cc1cc2c3nonc3ccc2n1-c1ccccc1,7.3,-8.5,-8.1,2.9,i,nt,-1.7,-21.9,

# Following part
SMILES,CSC inhib,MT1-MMP act inh,MT1-MMP act inh RFP,PABP polyA inh,Rce1 inhib,Yeast UUG start,eIF4H FP inh,Env fusion inh,others
COc1ccc(-c2cn(CC3CCCCC3)nn2)cc1,9.9,-0.7,-5.2,-1.5,i,-21.5,-8.8,-75.4,
CCOc1cc(/C=N/NC(=O)CSc2cccc3cccnc23)ccc1O,2.0,2.0,0.7,32.1,i,nt,21.0,-0.9,
Cc1ccc(-c2nc3ccc(NS(=O)(=O)c4ccccc4)cc3[nH]2)o1,nt,12.0,-2.7,-5.5,i,-19.8,-8.6,nt,
COc1cccc(OC)c1C(=O)Nc1nc2ccc(S(C)(=O)=O)cc2s1,6.7,-5.9,-1.0,-10.7,i,-6.2,2.2,-45.1,
O=C1CSC(c2cccc(F)c2)N1c1ccccc1F (stereo not drawn),nt,-0.9,-0.6,-2.9,i,-13.6,-6.4,-63.5,
CCc1c(O)nc(SCC(=O)N2CCOCC2)n(-c2ccccc2)c1=O,-10.1,-0.7,-1.3,-8.0,i,-0.2,-3.5,-34.7,
CCN(CC)/C(=N/O)NC(=O)NS(=O)(=O)c1ccc(C)cc1,-1.0,-7.8,-2.7,-13.4,i,-13.5,-0.1,nt,
CC(C(=O)Nc1ccc([N+](=O)[O-])cc1)N1CCN(C/C=C/c2ccccc2)CC1 (stereo not drawn),5.4,3.8,-2.1,6.4,i,-4.8,-8.2,-2.9,
Cc1ccc(-c2nc(N/N=C/c3ccccc3[N+](=O)[O-])c3ccccc3n2)cc1,nt,-4.1,-1.0,-4.5,i,-5.7,-0.3,-129.4,
COc1cccc(NC(=S)NN2CCN(C)CC2)c1,7.5,17.3,0.1,2.4,i,-25.3,-0.6,nt,
O=C(O)CCCC(=O)Nc1ccc(Br)cc1C(=O)O,-10.3,4.5,8.3,5.7,i,-14.9,-2.8,-11.2,
COCCN(C(=O)COC(=O)C1(c2ccccc2)CC1)c1c(N)n(CC(C)C)c(=O)[nH]c1=O,-3.1,0.9,3.2,nt,i,-3.0,nt,-5.2,
O=c1c(C=NCc2cccnc2)c(C(F)(F)F)[nH]n1-c1nc2ccccc2s1,9.2,-0.6,1.0,2.8,i,nt,8.3,-15.7,
COCC(C)N1CCC(n2nccc2NC(=O)c2ccc3c(c2)OCO3)CC1 (stereo not drawn),-4.7,2.0,5.7,19.6,nt,-9.6,?,8.8,
C[C@H](CO)N1C[C@H](C)[C@@H](CN(C)C(=O)Nc2ccccc2)Oc2c(cccc2N(C)C)C1=O,-6.7,0.9,4.8,nt,nt,-11.4&-9.4,nt,6.8,
O=C(c1ccccc1F)N(Cc1ccc2c(c1)OCO2)Cc1cc2cc3c(cc2n2nnnc12)OCO3,-6.4,0.0,-3.1,-2.0,i,-12.5,-13.4,nt,
COc1c(/C=N/NC(N)=S)c(C)nn1-c1ccccc1,-9.2,3.6,0.7,44.6,i,nt,-6.5,-7.4,
c1ccc(COc2ccccc2CNC23CC4CC(CC(C4)C2)C3)cc1,41.3,-8.7,-7.8,9.4,i,nt,-2.9,26.5,
O=C(COC(=O)c1cc(Cl)ccc1O)NC(=O)NCc1ccccc1,nt,-2.7,-0.2,nt,nt,-23.8,nt,-1.2,
